Lassa entry inh – blocks Lassa virus binding to or entry into cells. Lassa virus pseudotype entry inhibition, cell reporter; control for the full effect not named in the record. Potency, µM (titrated, usually from 37.9 µM), inactives show top-dose activity change, negative = inhibition, most hits filed as inhibitors. 300,000 compounds, 1.2% hits; active means well fitted inhibition curve with a large enough effect; inconclusive means small, poorly fitted or top-dose-only effect, or effect the other way; inactive means flat fitted curve, though single readings scatter; tested in HEK293 cells; also: % is scaled to controls: 0 for no effect and ±100 for the full control effect; nearly all actives have a fitted effect of over 50% in size; luciferase read-out
StopGo reporter – FMDV 2A StopGo reporter, luciferase signal | human cells with a luciferase reporter of 2A StopGo recoding; control for the full effect not named in the record | Potency, µM (highest dose often 57.9 µM), inactives show at the top dose signal change, negative = less light | 410,000 compounds, 1.2% hits; active = well fitted falling curve with a large enough effect; inconclusive = small, poorly fitted or top-dose-only effect; inactive = no such curve, though single readings can be large or run the other way; tested in HEK293T cells; also: % is scaled to controls: 0 for no effect and ±100 for the full control effect; nearly all actives have a fitted effect of over 45% in size; luciferase light after 4 h
Cruzain inh noDet – cruzain (T. cruzi) inhibition without detergent | P25779 | 200,000 compounds, 2.3% hits | purified cruzain, Z-FR-AMC fluorescence, no detergent | Potency, µM, inactives show max response, negative = inhibition, hits mostly inhibitors | AID 1476;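 also: plate controls were enzyme without inhibitor for no effect and buffer without enzyme for full effect; nearly all actives have a fitted effect of over 40% in size; top concentration of the series not given in the record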
Target sequence (P25779 123-467 limits assumed): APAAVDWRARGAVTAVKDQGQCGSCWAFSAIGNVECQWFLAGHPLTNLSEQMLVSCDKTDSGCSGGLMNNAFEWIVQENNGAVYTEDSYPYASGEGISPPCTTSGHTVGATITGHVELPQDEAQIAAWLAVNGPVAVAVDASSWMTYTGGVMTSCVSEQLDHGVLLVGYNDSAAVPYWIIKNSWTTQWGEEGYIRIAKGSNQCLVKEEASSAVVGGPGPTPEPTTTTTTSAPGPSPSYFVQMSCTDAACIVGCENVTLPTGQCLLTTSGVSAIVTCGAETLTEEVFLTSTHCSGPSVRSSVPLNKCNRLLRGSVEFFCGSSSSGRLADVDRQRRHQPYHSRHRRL
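Purified cruzain at 1.5 nM, pre-incubated 15 min with compound at room temperature in 100 mM sodium acetate pH 5.5, 5 mM DTT, 0.00005% Triton X-100. Reaction started with 2 uM Z-FR-AMC; AMC fluorescence increase over 60 s gives rate.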
Cruzain inh Det – blocks cruzain activity in presence of Triton detergent. P25779. Potency, µM, without a hit: max response, negative = inhibition, actives largely listed as inhibitors. purified cruzain, Z-FR-AMC fluorescence, 0.01% Triton. 200,000 compounds, 0.43% hits;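 also: plate controls were neutral wells for no effect and buffer without enzyme for full effect; nearly all actives have a fitted effect of over 40% in size; top concentration of the series not given in the record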
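Enzyme 1.5 nM, Z-FR-AMC 2 uM, NaOAc 100 mM pH 5.5, DTT 5 mM, Triton X-100 0.01%; 15 min RT compound preincubation; kinetic ex360/em450, 60 s delta.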
RE007 growth inh – less growth of the S. pombe RE007 Vpr strain; 360,000 compounds, 0.21% hits; AID 651644; Potency, µM (doses to about 92.2 µM), for the others: top-dose activity change, negative = less growth; S. pombe RE007 Vpr strain, BacTiter-Glo ATP luminescence, 24 h; control for the full effect not named in the record; active = well fitted falling curve with a large enough effect; inconclusive = small, poorly fitted or top-dose-only effect; inactive = no such curve, though single readings can be large or run the other way;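 also: % is scaled to controls: 0 for no effect and ±100 for the full control effect; nearly all actives have a fitted effect of over 50% in size; the assay follows cell death caused by Vpr and the record does not say whether a fall means rescue or toxicity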
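Fission yeast RE007 carrying one integrated HIV-1 vpr copy, seeded at OD 0.01 in PMG+AL medium with 23 nL pinned compound. Grown 24 h at 30 degrees; viability read by BacTiter-Glo luminescence after 5 min.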
NS1 inh – blocks influenza NS1 protein function; Potency, µM (highest dose often 46.1 µM), for inactives: at the highest dose activity, positive = more growth; S. cerevisiae slowed by influenza A NS1, growth recovery by OD600; 270,000 compounds, 0.4% hits; active means well fitted rising curve with a large enough effect; inconclusive means small, poorly fitted or top-dose-only effect; inactive means no such curve, though single readings can be large or run the other way; also: nearly all actives have a fitted effect of over 50% in size
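Growth recovery, yeast-based: influenza A NS1 expressed in S. cerevisiae causes slow growth, and suppressors are detected by OD600. The parent strain without NS1 is used as positive control.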
SARS PLpro yeast – SARS-CoV PLP inhibition in yeast; 330,000 compounds, 0.19% hits; S. cerevisiae expressing SARS-CoV PLpro, growth rescue; control for the full effect not named in the record; Potency, µM (series often up to 32.9 µM), inactives show at the highest dose activity, positive = growth rescue; active means well fitted rising curve with a large enough effect; inconclusive means small, poorly fitted or top-dose-only effect; inactive means no such curve, though single readings can be large or run the other way; also: 0% is about no effect; nearly all actives have a fitted effect of over 55% in size; growth read by luminescence after 48 h
Marburg entry inh – inhibitors of Marburg virus binding or cell entry | Marburg virus pseudotyped entry inhibition, cell reporter; control for the full effect not named in the record; about a third of the inactives were read at about 46 µM | Potency, µM (top dose mostly 37.8 µM), inactives show top-dose activity change, negative = inhibition, actives largely listed as inhibitors | 300,000 compounds, 1.8% hits; active = well fitted inhibition curve with a large enough effect; inconclusive = small, poorly fitted or top-dose-only effect, or effect the other way; inactive = flat fitted curve, though single readings scatter; tested in HEK293 cells; about a fifth of its hits are not listed in these tables; also: % is scaled to controls: 0 for no effect and ±100 for the full control effect; luciferase read-out
* marks the source's active call; other numbers are inactive results; ? = inconclusive; · = no result given; & = joins results of further samples; [ ] = dose if it differs, or a comment. Unless noted, calls follow the shape of the dose curve; as a rule, active = well fitted curve in the direction sought with a large enough effect; inconclusive = small, poorly fitted or top-dose-only effect, or another doubt; inactive = no such curve, though single readings can be large; an effect the other way counts as inactive or inconclusive. Potency is read from the fitted curve at half-maximal effect.

SMILES	Lassa entry inh	StopGo reporter	Cruzain inh noDet	Cruzain inh Det	RE007 growth inh	NS1 inh	SARS PLpro yeast	Marburg entry inh
CCOc1ccc(Nc2nc3c(S(=O)(=O)c4ccc(C(C)C)cc4)nnn3c3ccsc23)cc1	-6%[46.1 µM]	3%	-11%	-1.6%	·	·	·	·
COC(=O)Cc1c(C)c2ccc(OC(C)C)cc2oc1=O	·	25%	·	·	10%	-5%	0%	·
CCCOC(=O)Nc1sc2c(c1C(N)=O)CCCC2	-3%	35%[activator]	·	·	-17%	-2%	0%	3%[46.1 µM]
CNC(=O)Cn1c(C)cc(=O)c2cccc(C)c21	?	-13%	·	·	16%	2%	1%	-12%
Cc1ccc(C(=O)O)cc1S(=O)(=O)N1CCOCC1	-27%[14.3 µM]	-14%	-4%	2.4%	6%	-10%	-3%	-2%
COc1ccc(/C=C/C(=O)Nc2nc(-c3cccs3)ns2)cc1OC	3%[46.1 µM]	?	?	-5.9%	·	·	·	-16%[46.1 µM]
CCCS(=O)(=O)c1ncc(Cl)c(C(=O)N2CCN(c3ccc(OC)cc3)CC2)n1	?	-12%	1%	-5.1%	·	·	·	·
COc1ccccc1NC(=O)CCC(=O)c1ccc(-c2ccccc2)cc1	0%	-12%	-3%	-6.6%	-5%	11%	-9%	4%
Cc1cc(OCCCC(=O)Nc2cccc(-n3cnnn3)c2)ccc1Cl	·	7%	·	·	15%	0%	-13%	·
CCOC(=O)c1nc(N/N=C/c2ccccc2)sc1Br	?	2%	·	·	4%	-4%	-4%	-10%[46.1 µM]
CCOC(=O)C1=C(c2ccccc2)NC(=O)NC1c1cc(OC)c(O)c([N+](=O)[O-])c1 (stereo not given)	·	-6%	·	·	-2%	17%	-3%	·
COC(=O)Cc1c(C)nc2nc(-c3ccc(C)cc3)[nH]n2c1=O	7%[46.1 µM]	4%&30%	-1%&-14%	-0.6%&2.5%	-8%	1%	15%	3%[46.1 µM]
O=c1oc2ccccc2n1CSc1nc2ccccc2s1	6%	5%	-13%	-4.0%	?	-2%	?	?
CCCCOc1ccc(C(=O)OC(C)CN(C)C)cc1 (stereo not given)	-25%	21%	-13%	1.1%	1%	1%	0%	-12%
N#C/C(=C\c1ccccc1)C(=O)NC(=O)Oc1ccccc1	-1%	-21%	-5%	4.5%	-5%	-6%	-8%	?
CCN(CC)CCCN1C(=O)C(O)=C(C(=O)c2cc3cccc(OC)c3o2)C1c1ccncc1 (stereo not given)	15%	9%	0%	-2.2%	7%	-5%	8%	5%
O=C(Nc1ccncc1)c1cccc(S(=O)(=O)N2CCOCC2)c1	14%	-18%	·	·	2%	·	4%	-6%
COc1ccccc1NC(=O)Cn1nnc(-c2ccccc2NC(=O)c2cccs2)n1	?	?	-3%	1.6%	-4%	-8%	5%	?
Cc1n[nH]c(=O)c2c(NC(=O)CSc3nnnn3-c3ccccc3)oc(C)c12	12%[46.1 µM]	-17%	·	·	-7%	·	2%	14%
CCOc1ccc(Br)cc1C(=O)N/N=C/c1c[nH]c2ccccc12	·	-8%	·	·	-15%	-4%	2%	·
OC(COc1ccc2cc(Br)ccc2c1)CN1CCN(c2ccccn2)CC1 (stereo not given)	-3%	?	14%	-17%	13%	-33%	0%	?
C/C(=N\Nc1ccc(C#N)cc1[N+](=O)[O-])c1ccc(O)cc1	·	-7%	·	·	-9%	-3%	0%	·
Cc1ccnc(N2C(=O)c3ccccc3C2=O)c1	?	-10%	·	·	2%	1%	1%	?
CC(NC(=O)CN1CCN(c2ccc(Cl)cc2)CC1)c1ccccc1 (stereo not given)	·	?	·	·	11%	-5%	25%	·
CC(Sc1c[nH]c2ccccc12)C(=O)O (stereo not given)	4%	·	-10%	6.0%	-14%	3%	6%	-14%
O=C1C2ON(c3ccccc3)C(c3cccnc3)C2C(=O)N1c1ccc(Cl)c(Cl)c1 (stereo not given)	-10%	-11%	4%	-5.3%	11%	14%	8%	24%
Cc1cccc(NC(NC(=O)c2cccnc2)C(Cl)(Cl)Cl)c1 (stereo not given)	-1%	-11%	-1%	-1.7%	-1%	23%	2%	-27%
Cc1ccc(-c2nnn(CC(=O)N(CCN3CCOCC3)C(C(=O)NC3CCCC3)c3ccncc3)n2)o1 (stereo not given)	0%[46.1 µM]	-14%	·	·	-4%	6%	-2%	6%[46.1 µM]
Cc1cc(C)nc(-n2nc(C)c3c(C(=O)O)cc(-c4cccc(Br)c4)nc32)n1	·	-12%	·	·	9%	1%	-2%	·
COc1ccc(CN(C(=O)CN2C(=O)COc3ccccc32)C2CCCC2)c(OC)c1	?	-27%	-13%	0.1%	3%	-12%	0%	-1%
COc1ccc(Br)cc1CN(C)C(=O)Cc1ccc(S(=O)(=O)N2CCOCC2)s1	?	6%	·	·	9%	·	8%	-25%
Cc1c(C)[n+](=O)c(-c2ccc(F)cc2)c(C)n1[O-]	2%	0%	-11%	0.1%	7%	0%	5%	29%
CCOC(=O)N1CCN(C(=O)c2cnn(-c3cccc(F)c3)c2-n2cccc2)CC1	12%[46.1 µM]	-11%	30%	2.5%	·	·	·	·
CCc1ccc2nc3sc(C(=O)O)cc3cc2c1	-1%	16%	·	·	-13%	7%	-1%	4%[46.1 µM]
COc1cc(C(=S)N2CCOCC2)cc(OC)c1OC(=O)c1ccc(C)cc1	·	-27%	·	·	15%	25%	-2%	·
Cc1c(O)ccc(C(=O)COc2ccccc2F)c1O	?	-10%	-9%	-5.0%	-5%[3.69 µM]	-42%	-6%	-25%
Cc1cccc(NC(=O)c2cc3c(s2)-c2c(C)cccc2OC3)n1	·	16%	·	·	-14%	5%	3%	·
CSCCC1NC2(C(=O)Nc3c2ccc(Cl)c3C)[C@@H]2C(=O)N(C3CCCC3)C(=O)[C@H]12 (stereo not given in full)	-3%	-23%	16%	-8.6%	3%	-49%	2%	?
CC(=O)Nc1cc(C)ns1	4%	12%	·	·	13%	·	·	?
CN(C)S(=O)(=O)c1cccc(C(=O)OCC(=O)NC2CCCc3ccccc32)c1 (stereo not given)	9%	-10%	7%	-0.7%	4%	-16%	4%	-1%
COc1ccc(CCNC(=O)c2ccc(N(C)S(=O)(=O)c3ccc(C)cc3)cc2)cc1	?	?	·	·	8%	·	0%	-22%[46.1 µM]
COc1cc(OC)c(C2=NOC(C(=O)NCc3cccs3)C2)cc1Cl (stereo not given)	?	27%	·	·	?	-7%	0%	?
CCOc1ccc(C(=O)N(Cc2ccccc2)c2cccc(C)c2)cc1OC	-12%	-11%	·	·	0%	6%	-3%	-24%
CCC1CCC/C1=N\NC(=O)c1ccccc1C (stereo not given)	?	12%	·	·	-13%	·	·	28%
CC(=O)C1=C(O)C(=O)N(Cc2ccccc2)C1c1ccc(Cl)cc1 (stereo not given)	16%[46.1 µM]	-1%	·	·	10%	4%	1%	-18%[46.1 µM]
CCCCCOC(=O)Nc1ccc(S(=O)(=O)Nn2cnnc2)cc1	-1%	·	3%	2.7%	-3%	-3%	11%	-2%
CCc1cc2c(=O)n(CC(=O)NC3CCCCC3)cnc2s1	·	-9%	·	·	3%	-11%	6%	·
CCOCCCNC(=O)C1CCN(S(=O)(=O)c2ccc3nc4c(c(C(=O)O)c3c2)CCCCC4)CC1	·	1%	·	·	-3%	0%	-1%	·
CC1=C(C(=O)Nc2cccc(C)c2C)C2(CCCCC2)OC1=O	-6%[46.1 µM]	-20%	5%	-0.7%	·	·	·	8%[46.1 µM]
Cc1cc(C)n2c(Nc3ccc(C(C)C)cc3)c(-c3ccsc3)nc2n1	-13%[46.1 µM]	17%	-14%	-9.3%	·	·	·	?
COCCNC(=O)/C(C#N)=C/c1ccc(-c2ccc(OC)cc2[N+](=O)[O-])o1	3%	?	-13%	0.9%	-18%	10%	0%	0%
Oc1c(C(c2ccccc2)N2CCCCC2)sc2ncnn12 (stereo not given)	·	-11%	10%	1.1%	-10%	?	1%	·
CC(=O)Nc1nc2ccc(NC(=O)c3ccco3)cc2s1	22%	51%[activator]	1%	-0.2%	5%	10%	-6%	·
Cc1ccccc1-n1c(C)cc(/C=C2/C(=N)N3C(c4ccccc4)=CSC3=NC2=O)c1C	1%	0%	3.2µM*	-0.7%	-6%	-2%	2%	2%
COc1cc2c(cc1OC)C(COc1ccc(F)cc1)N(C(=O)Cc1ccccc1)CC2 (stereo not given)	?	-19%	31%	-0.4%	·	·	·	·
O=C1NC(=O)N(c2ccccc2)C(=O)/C1=C/c1ccoc1	9%[46.1 µM]	?	·	·	-20%	·	3%	8%[46.1 µM]
Cc1ccc(CNC(=O)C2CCN(S(=O)(=O)c3ccc4c(c3)oc(=O)n4C)CC2)cc1	2%[46.1 µM]	0%	10%	-0.1%	·	·	·	10%[46.1 µM]
COc1cc2c(cc1NC(=O)COC(=O)[C@@H](NS(=O)(=O)c1cccc(Cl)c1)C(C)C)oc1ccccc12	-21%	31%[activator]	?	-1.8%	·	?	5%	?
CCOC(=O)C(C)Sc1nc2c(c(=O)[nH]c(=O)n2C)n1CCc1ccccc1 (stereo not given)	5%	-1%	-5%	-4.3%	11%	-7%	-4%	?
COc1ccc(N2CCN(CCCNC(=O)c3cc(Nc4ccccc4OC)nc4ccccc34)CC2)cc1	?	?	-6%	-12%	·	·	·	·
Additional records follow:
SMILES	Lassa entry inh	StopGo reporter	Cruzain inh noDet	Cruzain inh Det	RE007 growth inh	NS1 inh	SARS PLpro yeast	Marburg entry inh
Cc1ccc(NC(=O)Cn2nnc(C(=O)Nc3ccc(C)c(C)c3)c2N)cc1	?	5%	?	1.6%	24%	9%	4%	19%
CC12CCC(=O)N1C(C(=O)OCC(=O)Nc1cc(S(=O)(=O)N3CCCCC3)ccc1Cl)CS2 (stereo not given)	0%	-11%	12%	-6.0%	5%	0%	18%	?
CCOC(=O)CSc1nnc(CNc2cccc(Cl)c2)n1-c1ccccc1	-1%	24%	5%	3.0%	-10%	-11%	-2%	-5%[46.1 µM]
Cc1ccc2oc(=O)c3cnn(CC(=O)Nc4cccc(C(F)(F)F)c4)c3c2c1	-3%[46.1 µM]	-1%	-11%	0.4%	·	·	·	-18%[46.1 µM]

From PubChem BioAssay

Compounds as they come (roughly 4.5% active in at least one column).
